Screening results (PubChem)
TRPML1 agonist: qHTS for Agonists of the Human Mucolipin Transient Receptor Potential 1 (TRPML1); Mucolipin-1 (Homo sapiens), Q9GZU1; TRPML1-expressing cells, Ca2+ dye fluorescence, FDSS; host cell line not named in the record; reference of the full effect not given here; activation, % (test concentration not listed); actives 0.12% (n = 410,000); AID 624414, 2012; in the data active = activation above about 50%; inconclusive = about 30% to 50%; inactive = below about 30%; note: 0% is about no effect; the text of the record puts the active cut at 80%
Target sequence (Q9GZU1 whole entry, looked up): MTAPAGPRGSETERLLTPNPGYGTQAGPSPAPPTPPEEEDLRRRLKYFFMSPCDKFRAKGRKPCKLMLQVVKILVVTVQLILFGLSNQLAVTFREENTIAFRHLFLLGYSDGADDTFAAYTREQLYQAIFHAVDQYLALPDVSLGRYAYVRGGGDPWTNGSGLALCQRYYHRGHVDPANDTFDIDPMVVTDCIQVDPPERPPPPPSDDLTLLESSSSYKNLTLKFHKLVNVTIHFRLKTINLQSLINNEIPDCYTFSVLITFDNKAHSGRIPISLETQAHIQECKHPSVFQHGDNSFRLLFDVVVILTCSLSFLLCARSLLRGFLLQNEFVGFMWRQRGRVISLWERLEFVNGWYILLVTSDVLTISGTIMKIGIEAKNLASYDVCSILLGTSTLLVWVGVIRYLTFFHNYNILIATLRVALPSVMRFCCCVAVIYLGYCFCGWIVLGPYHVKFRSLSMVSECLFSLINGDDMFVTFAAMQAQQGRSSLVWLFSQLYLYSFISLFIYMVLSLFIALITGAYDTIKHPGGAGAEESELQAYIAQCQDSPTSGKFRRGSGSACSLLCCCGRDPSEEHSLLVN
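Cells: TRPML1-DL, 1X Tet inducer, ~16 h at 37 degrees C/5% CO2. Dye: ABD Ca8 no-wash + quencher, 45-90 min RT. Read: 10 s baseline, compound add, 110 s agonist phase; 54-4 EC80 (4uM final), 110 s antagonist phase.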
Menin-MLL FL inh: qHTS Assay for Inhibitors Targeting the Menin-MLL Interaction in MLL Related Leukemias: Competition With Fluorescein Labeled MLL-derived Peptide. Fluorescence polarization, fluorescein-MLL peptide displacement from menin. FP activity change, % at 61.4 µM. 290,000 tested, under 10 active. AID 1766, 2009; inconclusive = falling polarisation curve, or a change in total fluorescence; inactive = total fluorescence flat and polarisation flat or rising; no compound was filed as active; the % refers to the polarisation; negative = inhibition;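 note: % of control where 0% means no effect; inhibitors lower the polarisation; unlabelled MLL peptide was the positive control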
PINK1 expr mod: A Quantitative High throughput Screen to Identify Chemical Modulators of PINK1 Expression; PINK1 immunofluorescence, high-content cytometry, 24 h; Potency, µM (highest dose often 76.6 µM), without a hit: top-dose activation (PINK1 increase), usual class: activators; actives 0.2% (n = 410,000); AID 624263, 2012; active = well fitted activation curve with a large enough effect; inconclusive = small, poorly fitted or top-dose-only effect; inactive = flat fitted curve, though single readings scatter; cell line not stated here;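 note: potency is the fitted concentration of half-maximal effect; % of control where 0% means no effect; nearly all actives have a fitted effect of over 65% in size; a mitochondrial uncoupler was the plate control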
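A stable cell line was treated with compounds at 5 concentrations for 24 hours, with CCCP as control. PINK1 levels and mitochondrial localization were measured by immunofluorescence with mitochondrial, cell and nuclear markers after fixation, read by laser-scanning cytometry.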
TRPV1 potentiator: HTS Assay for Compounds that Act as Potentiators of the Vanilloid Receptor 1. Transient receptor potential cation channel subfamily V member 1 (Homo sapiens), Q8NER1. TRPV1-expressing cells, Fluo-8 calcium influx, capsaicin EC20 potentiation; host cell line not named in the record; control for the full effect not named in the record. potentiation, % at 8.33 µM. actives 0.02% (n = 320,000). AID 540277, 2011; active means potentiation above 80%; inconclusive means 30% to 80%; inactive means below 30%; note: 0% is about no effect
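Cells expressing TRPV1 were dye-loaded with Fluo-8 and read kinetically: 10 s baseline, 3 min after compound (agonist portion), then 2 min after EC20 capsaicin (allosteric enhancer portion). Calcium-bound dye fluorescence at 480/520 nm.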
ClpP mod: qHTS Assay for Activators of ClpP. purified B. subtilis ClpP, FRET peptide cleavage, 20 min. Potency, µM (titrated, usually from 57.5 µM), without a hit: top-dose activity change, negative = active. actives 1.9% (n = 340,000); active = well fitted falling curve with a large enough effect; inconclusive = small, poorly fitted or top-dose-only effect; inactive = no such curve, though single readings can be large or run the other way; note: potency is the fitted concentration of half-maximal effect; the source files actives as falling curves though it sought activators and does not explain the sign; nearly all actives have a fitted effect of over 65% in size; many hits overshoot -100%
Target sequence (P80244 whole entry, looked up): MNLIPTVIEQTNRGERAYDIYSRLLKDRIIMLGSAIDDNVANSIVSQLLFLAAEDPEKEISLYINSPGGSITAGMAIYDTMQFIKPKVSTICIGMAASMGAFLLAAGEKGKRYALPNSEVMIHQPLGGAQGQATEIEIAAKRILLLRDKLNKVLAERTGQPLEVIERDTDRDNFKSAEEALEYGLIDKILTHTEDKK
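Buffer: 100 mM Tris/HCl pH8, 100 mM KCl, 0.05% low protease BSA, 2.5% glycerol, 0.01% Tween-20. ClpP 10 microg/mL final; 20 min RT; delta FRET normalized to ADEP and DMSO controls.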
TRPML1 inh: qHTS for Inhibitors of the Human Mucolipin Transient Receptor Potential 1 (TRPML1). actives 0.02% (n = 390,000). Mucolipin-1 (Homo sapiens), Q9GZU1. AID 624415, 2012. TRPML1-inducible cells, Ca2+ dye fluorescence, FDSS; stronger effect = lower value; inhibition of EC80 agonist-evoked calcium signal. activity change, negative = inhibition, % (test concentration not listed); in the data active means activity change below about -50%; inconclusive means about -30% to -50%; inactive means above about -30%;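 note: stimulus is agonist 54-4 at its EC80 concentration; % is set by controls: 0 for no effect and ±100 for the full control effect; compound concentration not given in the record; the text of the record puts the active cut at -80%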
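Tet-induced TRPML1-DL cells loaded with Ca8 no-wash calcium dye were read kinetically on FDSS. Compound addition was followed by EC80 agonist 54-4 (4 uM final); inhibition was read over 110 s.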
Sfp PPTase inh: qHTS Assay for Inhibitors of Bacillus subtilis Sfp phosphopantetheinyl transferase (PPTase) | Biochemical Sfp PPTase activity, qHTS | 4'-phosphopantetheinyl transferase ffp (Bacillus subtilis), Q9F4F7 | Potency, µM, inactives show max response, negative = inhibition, actives largely listed as inhibitors | actives 3.5% (n = 310,000); active = well fitted inhibition curve with a large enough effect; inconclusive = small, poorly fitted or top-dose-only effect, or another doubt; inactive = no such curve, though single readings can be large or run the other way;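 note: the enzyme is Sfp with the accession as filed and its product quenches rhodamine fluorescence; potency is the fitted concentration of half-maximal effect; 0% = enzyme reaction without inhibitor and -100% = no enzyme wells; top concentration of the series not given in the record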
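Buffer: 50 mM Hepes-Na pH 7.6, 10 mM MgCl2, 0.01% Nonidet P-40, 0.01% BSA. Enzyme 15 nM, pre-exposed to compound 15 min; substrates then added and fluorescence change tracked over 30 min.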
* hit, by the source's call; ? = inconclusive; . = not tested or not shown; [ ] = dose if it differs, or a comment.

SMILES	TRPML1 agonist	Menin-MLL FL inh	PINK1 expr mod	TRPV1 potentiator	ClpP mod	TRPML1 inh	Sfp PPTase inh
O=C(OCC1OC(n2ncc(=O)[nH]c2=O)C(OC(=O)c2ccccc2)C1OC(=O)c1ccccc1)c1ccccc1 (configuration not stated)	.	0.4	-0.5%	12	0.6%	.	-1%
O=C(CN1C(=O)C2C3C=CC(C3)C2C1=O)Nc1ccc2nccnc2c1 (configuration not stated)	-0.4	2.6	3.4%	.	5.0%	-3	5%
CCOC(=O)c1ccc(-c2ccc(/C=N/NC(=O)c3cncc(Br)c3)o2)cc1	0.0	?	27%	13	0.0%	-2	13%
CCC(CC)c1nnc(NC(=O)C2CSC3(C)CCC(=O)N23)s1 (configuration not stated)	0.2	.	2.6%	-8	26%	-1	.
NC(=O)c1cccc([N+](=O)[O-])c1	-0.4	.	0.7%	-6	-1.0%	0	.
C/C(=N\NC(=O)c1cccc(S(=O)(=O)N2CCCC2)c1)c1cccs1	-0.2	-1.0	2.2%	0	.	-8	19%
O=C(N1CCN(c2ccccc2F)CC1)C1(c2cccs2)CCOCC1	-0.8	3.0	0.8%	15	-2.6%	-2	-9%
O=C(COn1nnc2ccccc21)NCC1CCCCC1	3.0	-1.3	-2.1%	-15	-1.4%	-5	13%
CCc1ccc(NC(=O)c2cc(=O)c3ccc(C)c(C)c3o2)cc1	2.5	.	11%	.	0.6%	17	.
COc1cc2c(cc1OC)C(c1ccccc1[N+](=O)[O-])=NCC2	-1.1	.	-0.3%	.	-0.4%	.	.
Cc1cc(C)nc(NS(=O)(=O)c2ccc(N3C(=O)c4ccccc4C3=O)cc2)n1	-0.6	3.6	-0.2%	4	1.0%	2	9%
O=C(c1ccc(Cl)cc1)c1c[nH]c(C(=O)NNc2cccc(Cl)n2)c1	1.1	5.9	8.3%	?	.	15	8%
Cc1nc(-c2ccccc2)nc2[nH]c(-c3ccccc3)cc(=O)c12	4.2	5.2	12%	-12	?	-10	?
COc1ccc(-c2cc3ccc(OCc4nn[nH]n4)cc3oc2=O)cc1	-0.4	-1.2	.	?	12%	11	3%
O=C(c1ccccc1F)N1CCN(c2ccc([N+](=O)[O-])c(NCc3cccnc3)c2)CC1	1.2	1.8	0.1%	.	.	-6	-4%
OCC1(CCOc2ccccc2)CCN(Cc2ccccc2OC(F)F)CC1	-0.1	2.5	2.7%	1	.	-5	8%
COc1cccc(CNC(=O)CCS(=O)(=O)c2cccc3nsnc23)c1	1.2	-0.6	-1.6%	9	-2.6%	-4	-3%
O=C(Oc1ccc(C(=S)N2CCCCC2)cc1)c1ccccc1	11	2.4	2.8%	-10	.	36	22µM*
O=[N+]([O-])c1ccc(Sc2n[nH]c(-c3ccccc3)n2)nc1	1.2	-2.6	-2.8%	14	-3.0%	16	2%
Cc1ccccc1C(=O)Nc1cc(C)c(O)c(-c2nc3ccccc3o2)c1	0.5	.	-0.6%	.	-0.5%	-18	.
O[C@@H]1CN(Cc2cccs2)[C@@H](c2ccc(Cl)cc2)C[C@H]1n1cc(-c2ccc(F)cc2)nn1	-0.1	.	8.8%	.	-2.4%	2	.
CN(CCOC(=O)c1cccc(F)c1)Cc1ccccc1	1.5	-0.6	0.7%	2	1.3%	-5	5%
CCOC(=O)C(=Cc1ccc(OCc2ccc([N+](=O)[O-])cc2)c(OC)c1)C(=O)OCC	1.6	-0.5	-2.8%	-10	-3.3%	-7	10%
Clc1ccccc1CNc1ncnc2c1c(-c1ccccc1)cn2-c1ccccc1	-0.2	.	0.7%	.	?	-11	.
CSc1ccc(C(=O)NCC(=O)O)cc1[N+](=O)[O-]	.	2.3	2.0%	-4	1.0%	.	30%[activator]
CC(C)CN(C(=O)CCNC(=O)c1ccc([N+](=O)[O-])cc1)C1CCS(=O)(=O)C1 (configuration not stated)	-0.4	.	-2.2%	.	.	14	.
CNC(=O)COC(=O)c1ccc(OCC(=O)Nc2ccccc2OC)c(OC)c1	0.1	1.7	4.9%	7	.	-17	16%
Cn1nc(C(F)(F)F)c(/C=N/OC(=O)c2ccccc2Cl)c1SCc1ccccc1Cl	3.5	1.2	0.7%	0	-1.8%	59	13%
C/C(=C\c1ccccc1)C(=O)NC1CCSC1=O (configuration not stated)	0.0	3.0	3.7%[38.3 µM]	-13	0.4%	12	21%
Clc1ccc(Cn2ncc3c(N4CCCCC4)ncnc32)c(Cl)c1	0.7	-0.9	15%	26	-1.3%	26	-23%
CCOc1ccc(-c2nnc3sc(COc4ccc(C)cc4)nn23)cc1	0.9	-0.8	4.1%	-3	1.0%	4	-8%
CCCN1CCC(=O)N([C@H](CSc2ccc(C)cc2)Cc2ccccc2)CC1	-0.9	-3.0	5.2%	0	-2.2%	1	?
O=C(Nc1cccc(C(=O)N2CCOCC2)c1)c1ccccc1	0.1	2.5	2.7%	0	-1.8%	-5	16%
COC(=O)C1=C(C(=O)OC)SC(=C2C(=S)C(C)(C)N(C(=O)C3CC3)c3ccccc32)S1	1.5	1.9	.	2	0.9%	31	-12%
ONC(=Nc1ccc(Cl)cc1)c1ccc(Cl)cc1	-0.7	0.2	4.0%	-11	-1.6%	-1	15%
Cc1ccc(C(=O)NCCCNC(=O)c2ccco2)cn1	1.0	0.0	1.4%	2	.	16	16%
COC(=O)c1ccccc1NC(=O)Cn1c(=O)n(-c2cccc(OC)c2)c(=O)c2c(C)c(C(=O)N(C)C)sc21	0.9	.	-1.1%	.	-0.3%	-18	.
Cc1ccc(Oc2ccc(S(=O)(=O)Nc3ccc(C(=O)O)cc3)cc2)cc1	2.4	.	0.7%	0	0.9%	37	.
CCN(C(=O)CSc1nc(C)c(C)c(C)n1)C1CCS(=O)(=O)C1 (configuration not stated)	0.8	.	2.3%	.	-4.3%	-19	.
O=C(Cn1nnc(-c2ccccc2)n1)Nc1ccccc1N1CCOCC1	0.9	-2.3	.	12	-3.2%	26	19%
CC(C)c1nc2ccccc2c2nnc(SCC(=O)NCc3ccco3)n12	1.8	-2.0	1.4%[38.3 µM]	-3	-0.5%	-2	-2%
O=C(O)Cc1ccc(NS(=O)(=O)c2ccc3c(c2)OCCO3)cc1	0.0	.	1.4%	.	1.1%	1	.
COC(=O)c1sccc1NC(=S)N1CCCCC1C (configuration not stated)	0.4	2.2	1.5%	?	1.1%	3	-22%
O=C(/C=C/c1ccc([N+](=O)[O-])cc1)OCC(=O)N1CCCCCC1	-0.4	.	3.2%	.	0.5%	-6	.
O=C1c2ccccc2C(=O)N1S(=O)(=O)c1ccccc1	-0.6	.	0.3%	?	0.6%	-13	12%

One compound at a time, as listed above. Values in the order: TRPML1 agonist	Menin-MLL FL inh	PINK1 expr mod	TRPV1 potentiator	ClpP mod	TRPML1 inh	Sfp PPTase inh
Record of `O=C(CN1C(=O)C2C3C=CC(C3)C2C1=O)Nc1ccc2nccnc2c1` (configuration not stated) → -0.4	2.6	3.4%	.	5.0%	-3	5%
Record of `Clc1ccc(Cn2ncc3c(N4CCCCC4)ncnc32)c(Cl)c1` → 0.7	-0.9	15%	26	-1.3%	26	-23%

Next part:
SMILES	TRPML1 agonist	Menin-MLL FL inh	PINK1 expr mod	TRPV1 potentiator	ClpP mod	TRPML1 inh	Sfp PPTase inh
O=C(O)C1Nc2ccc(Br)cc2C2C=CCC12 (configuration not stated)	.	6.5	-0.7%	9	-0.4%	.	?
Cc1ccc(Nc2c(-c3ccc(C)cc3)nc3c(C)cccn23)cc1	1.4	.	6.0%	.	4.3%	5	.
Cc1cccc(N(CC(=O)NCc2ccco2)S(=O)(=O)c2ccccc2)c1	-0.9	.	2.2%	.	1.1%	7	.
CC(C)(C)c1ccc(C(=O)NCC(=O)OCCN2C(=O)c3ccccc3C2=O)cc1	0.3	.	-1.1%	-5	-3.3%	0	.
COC(=O)[C@@]1(Cc2ccc(F)cc2)[C@H]2c3cc(C(=O)N(C)C)n(CCc4c[nH]c5ccc(O)cc45)c3C[C@H]2CN1C(=O)c1ccccc1	3.3	.	1.0%	.	-0.7%	.	.
Cc1ccc2cc(CN(C(=O)c3ccco3)c3cccc(C)c3C)c(=O)[nH]c2c1	0.5	1.8	2.1%	12	.	12	32µM*
Cc1ccc([C@@H]2CC(=O)[C@@H]3CN(S(=O)(=O)c4ccc(C)cc4)[C@H](c4cccc5ccccc45)C[C@@H]3N2S(=O)(=O)c2ccc(Cl)cc2)cc1	1.0	.	0.7%	.	0.7%	2	.
CCNc1nc(NCC)nc(N/N=C/c2ccc(O)c(O)c2)n1	1.0	3.9	-0.5%	0	-20%	-27	50µM*
CCNC(=S)N(CCN(C)C)Cc1cc2cc(OCC)ccc2[nH]c1=O	0.0	3.7	1.3%	-15	1.0%	-2	-1%
Cn1c(N)c(C(=O)COC(=O)CNC(=O)c2ccccc2)c(=O)n(C)c1=O	-0.3	.	1.2%	.	1.0%	-8	.
Cc1sc2ncnc(N3CCC(C(=O)Nc4ccc(C#N)cc4)CC3)c2c1C	-0.1	.	?	-14	-1.8%	10	.
CCC(c1nnnn1C1CCCC1)N1CCN(C/C=C/c2ccccc2)CC1 (configuration not stated)	-0.5	.	3.3%	.	0.7%	.	.
O=C(NNC(=O)C1CCN(S(=O)(=O)c2ccc(Cl)cc2)CC1)c1ccc(S(=O)(=O)N2CCCCC2)cc1	0.0	4.5	21%	5	1.7%	12	10%
COc1cccc(-c2cc(C(=O)NC3CC3)c3ccccc3n2)c1	0.0	.	0.3%	6	-4.0%	-5	13%
CCCn1c(N)c(N(CCOC)C(=O)Cc2ccc(S(=O)(=O)N3CCOCC3)s2)c(=O)[nH]c1=O	1.9	.	4.6%	-7	-15%	2	.
O=C(Nc1cc(Cl)ccc1Cl)N1CCCC1	4.0	-2.7	-1.1%	-4	2.3%	-17	12%
FC(F)(F)c1cnc(Oc2ccc(-c3nnco3)cc2)c(Cl)c1	3.0	-1.9	-2.2%	-9	-1.1%	5	13%
Clc1ccc2c(N/N=C/c3cccnc3)ccnc2c1	0.6	-1.6	-2.6%	-3	.	0	50µM*
